FEN1 inh: qHTS Assay for the Inhibitors of Human Flap endonuclease 1 (FEN1). Potency, µM (highest dose often 114 µM), without a hit: at the highest dose activity change, negative = inhibition, hits mostly inhibitors. AID 588795, 2011. hit rate 0.35% among 390,000. Recombinant FEN1 flap cleavage, fluorescence, 15 min; also: nearly all actives have a fitted effect of over 65% in size
Target sequence (P39748 whole entry, looked up): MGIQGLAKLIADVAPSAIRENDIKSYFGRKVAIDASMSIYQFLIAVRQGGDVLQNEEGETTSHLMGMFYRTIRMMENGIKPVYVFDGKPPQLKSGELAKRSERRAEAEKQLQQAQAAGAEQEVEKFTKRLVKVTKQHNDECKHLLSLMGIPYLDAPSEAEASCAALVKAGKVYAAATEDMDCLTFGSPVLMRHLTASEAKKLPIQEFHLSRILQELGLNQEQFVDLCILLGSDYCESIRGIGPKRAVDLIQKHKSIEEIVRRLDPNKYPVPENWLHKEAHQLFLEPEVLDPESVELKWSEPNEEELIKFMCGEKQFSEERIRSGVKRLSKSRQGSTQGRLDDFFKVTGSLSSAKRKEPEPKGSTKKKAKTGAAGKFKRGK
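Enzyme 10 nM, 15 min RT preincubation with compound; start with substrate 50 nM final; reads at 0 and 15 min; qHTS titration, four-parameter Hill fit.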
N370S GC: qHTS Assay for Inhibitors and Activators of N370S glucocerebrosidase as a Potential Chaperone Treatment of Gaucher Disease. Lysosomal acid glucosylceramidase (Homo sapiens), P04062. N370S GC spleen homogenate, 4MU-glucoside fluorescence. Potency, µM (highest dose often 59.4 µM), inactives show top-dose activity change, negative = inhibition, hits mostly inhibitors. hit rate 0.092% among 330,000;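 also: 0% = full enzyme activity and -100% = no enzyme basal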
Starred values were filed as active, the others as inactive; ? = inconclusive; . = no result given; [ ] = another dose, or the depositor's remark. Calls follow the shape of the dose curve; as a rule, active = well fitted curve in the direction sought with a large enough effect; inconclusive = small, poorly fitted or top-dose-only effect, or another doubt; inactive = no such curve, though single readings can be large; an effect the other way counts as inactive or inconclusive. Unless noted, % is scaled to controls: 0 for no effect and ±100 for the full control effect; potency is read from the fitted curve at half-maximal effect. Some of the compounds tested, and most or all hits are left out here.

compound	FEN1 inh	N370S GC
O=C(NCCc1ccccc1)/C(=C\c1ccc([N+](=O)[O-])cc1)NC(=O)c1ccccc1	0%	-25%
CCCn1c(C)cc(C(=O)CSc2nnc3n(CCC)c(=O)c4ccccc4n23)c1C	.	-3%
CCn1c(=O)n(CC)c2cc(N3CCCC3)c(NC(=O)c3ccc(C)cc3)cc21	-4%	-5%
CCN1C(=O)c2cccc3c(S(=O)(=O)N(C(C)=O)c4ccc(OC(C)=O)cc4)ccc1c23	7%	.
CCOc1ccc(NC(=O)CSc2nnc(-c3ccc(C)cc3)c(-c3ccc(C)cc3)n2)cc1	1%	.
Cc1cc(C)nc(N(C#N)CN2C(=O)c3ccccc3C2=O)n1	-1%	-25%
COc1ccccc1N1CCN(C(=O)/C=C/c2ccco2)CC1	12%	-1%
O=C(COc1ccc(Cl)cc1Cl)OCn1nnc2ccccc2c1=O	10%	5%
O=C(NCCCN1CCCC1=O)c1cccc(NS(=O)(=O)c2ccccc2)c1	-10%	-10%
CNS(=O)(=O)c1ccc(NC(=O)c2ccccn2)cc1	0%	3%
Cc1ccc(/C=N/c2sc(Cc3ccccc3)c(C)c2C(N)=O)o1	-14%	0%
C=CCCC(=O)Nc1nc(C)c(-c2csc(Nc3cc(Cl)ccc3OC)n2)s1	12%	3%
CCC(C(=O)NC1CCCC1)n1c(SCc2cccc(C)c2)nc2ccncc21 (centres undefined)	-19%	?
Cc1cc(/C=C\c2ccc3cc(N(C)C)ccc3[n+]2C)c(C)n1-c1ccccc1	-34%	-1%
CCCC(C(=O)NC1CCCC1)N(C(=O)Cn1nnc(-c2ccc(C)o2)n1)c1ccccc1F (centres undefined)	8%	1%
CN(C)S(=O)(=O)c1ccc(N2CCCC2)c(C(=O)NCc2ccc(Cl)cc2)c1	-17%	22%
Nc1nc(CN2CCN(c3ccccc3)CC2)nc(N2CCCc3ccccc32)n1	-14%	0%
CC(=O)c1sc(NC(=O)c2ccccc2C)nc1C	-17%	-9%
CCCNC(=O)Cn1cc(S(=O)(=O)N2CCCC2)c(S(=O)(=O)N2CCCC2)c1	0%	4%
CSc1nn2c(C)c(C)c(C)nc2c1C#N	-2%	6%
O=C1C(c2ccc(F)cc2)N(CCc2ccc(Cl)cc2)C(=O)CN1C1CCCCCC1 (centres undefined)	0%	.
OCCOCCOc1cccc2[nH]ccc12	-1%	0%
Cc1ccc(C(=O)OCC(=O)NCc2cccs2)s1	3%	-4%
CCCCNC(=O)C1c2cc(OC)c(OC)cc2C(=O)N(C)C1c1cccs1 (centres undefined)	17%	-3%
CCCOc1ccc(CNC(=O)c2cc3oc4ccccc4c3n2C)cc1	8%	.
CC(C)(C)NC(=O)Cn1c(SCC(=O)NC2CC2)nc2ccccc21	7%	1%
COc1ccc(-c2nn(-c3ccccc3)cc2C(=O)N2CCN(S(=O)(=O)c3cccc(F)c3)CC2)cc1	-11%	-13%
Brc1ccc(-c2csc(/N=C/N3CCCC3)n2)cc1	-4%	16%
COc1cc(NS(=O)(=O)c2c(C(=O)N3CCOCC3)c(C)n(C)c2C)cc(OC)c1OC	0%	-1%
O=C(C1=C[C@H](C2CC2)C[C@H](OCc2ccc(CO)cc2)O1)N1CCOCC1	18%	10%
CCN1C(=O)C(CC(=O)Nc2ccc(Br)cc2)N(CCCc2ccccc2)C1=S (centres undefined)	-23%	-20%
COCCNC(=O)CN(C(=O)Cn1nnc2ccccc21)c1ccccc1	-7%	5%
Cc1cc2nc(-c3cccc(NC(=O)C(C)C)c3C)oc2cc1C	6%	.
COc1ccc(-n2c(=S)[nH]c3c(oc4ccccc43)c2=O)cc1	0%	5%
Cc1cc(C)c(C)c(Oc2ncnc(N)c2[N+](=O)[O-])c1	-9%	17%
Cc1ccc(OCCSc2nc3ccccc3n2CC(=O)NC(C)C)cc1	-2%	.
CCOc1ccc(NC(=O)c2c(C)nn(-c3ccc(F)cc3)c2-n2cccc2)cc1	-3%	.
Cc1cc(NC(=O)COC(=O)[C@H](Cc2ccccc2)NC(=O)c2ccco2)no1	10%	.
COC(=O)c1ccc(OS(=O)(=O)N(C)C)cc1	5%	2%
O=C(Nc1nccs1)C1CC(=O)N(CCc2ccc(F)cc2)C1 (centres undefined)	-18%	-2%
COc1ccc(C2CC(=O)C=C(NNS(=O)(=O)c3ccc(C)cc3)C2)cc1 (centres undefined)	-7%	2%
Cc1ccc(Nc2nc(C(N)=O)c(NC(=O)c3ccccc3Br)s2)cc1	-9%	.
O=C(Nc1cccc(-n2cnnn2)c1)c1ccc(C(F)(F)F)cc1	2%	.
CCCCOc1ccc(/C=N/NC(=S)Nc2cc(C)ccc2C)cc1	-6%	15%
C[C@@H]1CN([C@H](C)CO)C(=O)c2cccc(NS(=O)(=O)c3ccccc3)c2O[C@H]1CN(C)C	13%	.
Cc1cc(C)c(C)c(S(=O)(=O)N2CCC(C(=O)Nc3ccc(S(=O)(=O)N4CCOCC4)cc3)CC2)c1C	-17%	-18%
COc1ccc(NC(=O)CSc2ccc(-c3cccs3)nn2)c(OC)c1	-1%	28%
CCOC(=O)c1c(NC(=O)CS(=O)(=O)c2ccc(C)cc2)sc2c1CCC(C)C2 (centres undefined)	1%	.

Part of the list above in another layout:
Fields: FEN1 inh	N370S GC
CC(C)(C)NC(=O)Cn1c(SCC(=O)NC2CC2)nc2ccccc21
→ 7%	1%
COc1ccc(-c2nn(-c3ccccc3)cc2C(=O)N2CCN(S(=O)(=O)c3cccc(F)c3)CC2)cc1
→ -11%	-13%
Brc1ccc(-c2csc(/N=C/N3CCCC3)n2)cc1
→ -4%	16%
COc1cc(NS(=O)(=O)c2c(C(=O)N3CCOCC3)c(C)n(C)c2C)cc(OC)c1OC
→ 0%	-1%
O=C(C1=C[C@H](C2CC2)C[C@H](OCc2ccc(CO)cc2)O1)N1CCOCC1
→ 18%	10%
CCN1C(=O)C(CC(=O)Nc2ccc(Br)cc2)N(CCCc2ccccc2)C1=S (centres undefined)
→ -23%	-20%
COCCNC(=O)CN(C(=O)Cn1nnc2ccccc21)c1ccccc1
→ -7%	5%
Cc1cc2nc(-c3cccc(NC(=O)C(C)C)c3C)oc2cc1C
→ 6%	.
COc1ccc(-n2c(=S)[nH]c3c(oc4ccccc43)c2=O)cc1
→ 0%	5%
Cc1cc(C)c(C)c(Oc2ncnc(N)c2[N+](=O)[O-])c1
→ -9%	17%
Cc1ccc(OCCSc2nc3ccccc3n2CC(=O)NC(C)C)cc1
→ -2%	.
CCOc1ccc(NC(=O)c2c(C)nn(-c3ccc(F)cc3)c2-n2cccc2)cc1
→ -3%	.
Cc1cc(NC(=O)COC(=O)[C@H](Cc2ccccc2)NC(=O)c2ccco2)no1
→ 10%	.
COC(=O)c1ccc(OS(=O)(=O)N(C)C)cc1
→ 5%	2%
O=C(Nc1nccs1)C1CC(=O)N(CCc2ccc(F)cc2)C1 (centres undefined)
→ -18%	-2%
COc1ccc(C2CC(=O)C=C(NNS(=O)(=O)c3ccc(C)cc3)C2)cc1 (centres undefined)
→ -7%	2%
Cc1ccc(Nc2nc(C(N)=O)c(NC(=O)c3ccccc3Br)s2)cc1
→ -9%	.
O=C(Nc1cccc(-n2cnnn2)c1)c1ccc(C(F)(F)F)cc1
→ 2%	.
CCCCOc1ccc(/C=N/NC(=S)Nc2cc(C)ccc2C)cc1
→ -6%	15%
C[C@@H]1CN([C@H](C)CO)C(=O)c2cccc(NS(=O)(=O)c3ccccc3)c2O[C@H]1CN(C)C
→ 13%	.

(more compounds)
compound	FEN1 inh	N370S GC
CCN(CC(=O)Nc1ccccc1OC)C(=O)CC1CC2CCC1C2 (centres undefined)	-1%	.
C/C(CCc1ccccc1)=N/NC(=O)C(=O)NCc1ccccc1	12%	13%
O=S(=O)(Nc1ccc2nc(-c3cccc(Cl)c3)oc2c1)c1ccccc1	-23%	.
CCOc1ccc(-c2nc(C#N)c(N3CCOCC3)o2)cc1	-24%	21%
Cc1ccsc1CN(C(=O)c1ccc([N+](=O)[O-])cc1)C1CCS(=O)(=O)C1 (centres undefined)	-2%	-3%
Cc1ncc(CN2CCC(CO)(CCc3ccccc3)CC2)s1	-13%	3%
CC(C)(C)NC(=S)NCc1cccnc1	3%	3%
Cc1cc(C(F)(F)F)nc(SCC(=O)Nc2c(C)n(C)n(-c3ccccc3)c2=O)n1	8%	-4%
COC(=O)CCCC1=CC2=C(c3ccccc3)C(=O)C(C)(OC(=O)C3CCCC3)C(=O)C2=CN1CCCCO (centres undefined)	-14%	15%[12.8 µM]
Cc1noc(C)c1S(=O)(=O)Nc1ccc(C(=O)Nc2ccc(Br)cc2)cc1	-2%	.
CCCNC(=O)C(Cc1ccccc1)NS(=O)(=O)c1cccc2nsnc12 (centres undefined)	0%	-1%
O=C(O)CCS(=O)(=O)c1ccc(-c2ccccc2)cc1	8%	24%
CCOc1ccc(CC(=N)C2=C(O)CC(C)(C)CC2=O)cc1OCC	2%	5%
CC(C)C(=O)N1C2CCC1CC(O)(c1ccc(F)cc1)C2 (centres undefined)	-15%	15%
c1csc(C2=NC(c3ccncc3)=Nc3ccccc3N2)c1	12%	.
CCOC(=O)N1CCN(C(=S)NC(=O)c2c(-c3c(Cl)cccc3Cl)noc2C)CC1	4%	-6%
CC(=O)c1ccc(OCC(=O)NCC(c2ccco2)N2CCCCC2)cc1 (centres undefined)	6%	2%
CC1=C(C(N)=O)C(c2cccc(Br)c2)n2nc(SCc3ccccc3Cl)nc2N1 (centres undefined)	-7%	.
O=C(Nc1ccc(OC(F)(F)F)cc1)C1=NCCN1	-2%	?
O=C(Cn1c(=O)c2cccn2c2cccnc21)N1CCN(c2ccc(Cl)cc2)CC1	-14%	0%
C=C1C2(C(=O)Nc3ccc(SC(F)F)cc3)CCC(C2)C1(C)C (centres undefined)	-1%	12%
Cc1cc(C(=O)N2CCC(Cc3ccccc3)CC2)c(C)o1	-11%	-3%
COc1ccc(N2C(=O)N3[C@@H]4c5ccccc5OC[C@@H]4[C@@H](c4ccccc4)[C@@]3(C)C2=O)cc1	-19%	.
CCOc1ccc(C(=O)N/N=C/c2ccccc2[N+](=O)[O-])cc1	3%	7%
CC(C)(C)OC(=O)N1CCC(c2c(C(=O)NCc3ccc(F)cc3)cnn2-c2ccc(F)cc2)CC1	-14%	.
Cc1cc(C)n(-c2nnc(Nc3cc(Cl)ccc3C)c3ccccc23)n1	-1%	.
CNC(=S)N1C2CCC1CC(NC(=O)NC13CC4CC(CC(C4)C1)C3)C2 (centres undefined)	-8%	-1%
O=C(O)c1csc(-c2cccs2)n1	4%	1%
COc1ccc(OCC(=O)Nn2c(-c3cccc(OC)c3)nc3ccccc3c2=O)cc1	6%	11%
CCCC(=O)Nc1cccc(NC(=O)c2ccc([N+](=O)[O-])cc2Cl)c1	4%	12%
CCCCOc1ccc(NC(=O)CSc2nnnn2C)cc1	4%	13%
Cc1ccc(CN(C)CC(=O)Nc2cccc([N+](=O)[O-])c2)o1	13%	-6%
CC(C)N(Cc1ccccc1)S(=O)(=O)c1ccc(N2CCCCS2(=O)=O)cc1	9%	.
CC(c1ccccc1)N1CC(C(=O)N2CCN(c3ccc(F)cc3)CC2)CC1=O (centres undefined)	-13%	4%
c1ccc(-c2nnc(-c3c[nH]c4ccccc34)nc2-c2ccccc2)cc1	-19%	25%
CCn1c(-c2ccsc2)nc2c1c(=O)[nH]c(=O)n2Cc1ccccc1	0%	?
Cc1ccc(S(=O)(=O)N2CCC(C(=O)N3CCC[C@H]3C(=O)NCc3ccccc3)CC2)cc1	4%	-4%
COc1ccc(OC)c(NC(=O)NNC(=O)COc2ccc(F)cc2F)c1	-5%	4%
O=C(CSc1ccccn1)Nc1ccc(Cl)c([N+](=O)[O-])c1	3%	17%
O=C(COc1ccccc1)N1CCN(C(=O)COc2ccccc2)CC1	3%	-4%

Screens as filed in PubChem.
